Anaer choline gr = choline-fed anaerobic bacterial growth inhibition | hit rate 0.2% among 55,000 | Gram-negative bacterium anaerobic choline minimal medium, absorbance growth; active compounds read low; many inactives read as strong as hits in the columns shown | calls only;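 active means growth z-score on choline under -2 at 7 or 20 h with little or no fall on glycerol, limits in tiers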;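 further: stock transfer was 300 nL into about 50 µL; the organism is E. coli; final concentration not given here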
Anaer choline gr early = also measured in Anaer choline gr; calls as there; z-score; measured here: choline growth z-score, timepoint 1;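 score of optical density at 7 h as mean of two plates; lower means less growth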
* marks the source's active call; other numbers are inactive results; i = inactive; & = joins results of further samples. This is a subset; rates above refer to the full screens.

SMILES	Anaer choline gr	Anaer choline gr early
Cc1nn(C(C)C)c(C)c1S(=O)(=O)N1CCN(C(=O)c2ccsc2)CC1	i	-0.29
Cc1sc(C)c(S(=O)(=O)N2CCN(c3ccc(F)cc3)CC2)c1-c1cc(C(F)(F)F)on1	i	0.08
Cc1cc2c(cc1S(=O)(=O)N1CCCC1C(=O)NC1CCCC1)OCC(=O)N2 (stereo not given)	i	0.3
O=C(CCc1nc(-c2ccc(S(=O)(=O)N3CCOCC3)cc2)no1)NC1CC1	i	-0.33
CN1C(=O)c2cc(NC(=O)c3ccc(Cl)cc3)ccc2N2CCN=C12	i	0.3
CCc1cccc(NC(=O)c2nc(CS(=O)(=O)c3ccc(Cl)cc3)no2)c1	i	0.12
Cc1sc(NC(=O)c2ccccc2)c(C(Nc2ccccn2)c2ccncc2)c1C (stereo not given)	i	-0.27
O=C(Cn1c(=O)n2nc(-c3ccc(F)cc3)nc2c2ccccc21)c1ccccc1Cl	i	-0.85
O=C(Nc1c(-c2ccc(F)cc2)nc2ccccn12)c1c(F)cccc1F	i	0.24
Cc1nc(-c2ccc(S(=O)(=O)N3CCN(c4ccc(N5CCOCC5)nn4)CC3)cc2)co1	i	-0.13
N#CC1=CN(c2ccc(F)cc2Cl)c2cc(Cl)ccc2S1(=O)=O	i	0.45
CC1(C)CC(=O)C2=C(C1)Nc1onc(C(C)(C)C)c1C2c1ccc(O)c(O)c1 (stereo not given)	i	-0.38
CC(=O)N1CCOc2cc(S(=O)(=O)N3CCC(C)CC3)c(Cl)cc21	i	-0.58
COCCNC(=O)C(C)C1CCN(S(=O)(=O)c2ccc(Br)s2)CC1 (stereo not given)	i	-0.67
CSCC[C@H](NC(=O)[C@H](Cc1ccccc1)NC[C@@H](NC[C@@H](N)CS)C(C)C)C(=O)O	i	0.35
CCOC(=O)c1ccccc1NC(=O)CSc1ncc(S(=O)(=O)c2ccc(C)c(Cl)c2)c(=O)[nH]1	i	-1.3
O=S(=O)(c1ccc(Cl)cc1)N1CCC(n2cnc3cccnc32)CC1	i	-0.42
Cc1cc(C(=O)NCCN2CCOCC2)on1	i	1.2
O=C(c1cnc2sccn2c1=O)N1CCN(c2ccc(F)cc2)CC1	i	-0.91
O=C(O)c1cnn2c(-c3ccncc3)ccnc12	i	-0.56

Grouped by structure, the entries above with a COOH group (two)
SMILES	Anaer choline gr	Anaer choline gr early
CSCC[C@H](NC(=O)[C@H](Cc1ccccc1)NC[C@@H](NC[C@@H](N)CS)C(C)C)C(=O)O	i	0.35
O=C(O)c1cnn2c(-c3ccncc3)ccnc12	i	-0.56

Next entries:
SMILES	Anaer choline gr	Anaer choline gr early
CN(C)S(=O)(=O)Nc1ccc(N2CCC(C(N)=O)(N3CCCCC3)CC2)c(C(=O)O)c1	i	-1.2
Cc1ccn2c(=O)cc(COc3ccccc3NC(=O)Nc3cccc(Cl)c3)nc2c1	i	0.25
O=C(O)C1=CC(=C(c2ccc(O)c(C(=O)O)c2)c2ccc(O)c(C(=O)O)c2)C=CC1=O	i	0.16
Cc1nc2nc3c(c(N4CCN(c5ccccn5)CC4)n2n1)CCCC3	i	0.11
Cc1ccccc1NS(=O)(=O)c1cc(-c2nc(C)c(C)s2)sc1C	i	0.9
Cc1ccc(Cl)cc1NC(=O)N1CCCC(C)(C(=O)NCc2ccc(F)cc2)C1 (stereo not given)	i	0.47
Cc1ccc(NC(=O)CN(C)S(=O)(=O)c2ccc3c(c2)CC(C)N3C(=O)C2CC2)c(C)c1 (stereo not given)	i	0.73
O=C(c1cc(C2CC2)on1)N1CCCC1	i	-1
O=C(NCC1CCCO1)c1cc(-c2cccnc2)nc2ccc(Cl)cc12 (stereo not given)	i	-0.42
CC(C)(C)C(=O)OCOC(=O)[C@@H]1N2C(=O)[C@@H](N=CN3CCCCCC3)[C@H]2SC1(C)C	i	-0.98
COc1cc(Cl)c(C)cc1NS(=O)(=O)c1c(C)nc2sc3ccccc3n2c1=O	i	0.78
NCCS(=O)O	i	0.54
CCOC(=O)c1ccccc1NC(=O)CSc1ncc(S(=O)(=O)c2ccc(OC)c(Cl)c2)c(=O)[nH]1	i	0.07
COc1ccc(C2CC(=O)N(CCc3ccccc3)C(=O)C2)cc1OC	i	-0.61
COC(=O)c1c(C)[nH]c(C(=O)N2CCCC(C(=O)NCCN3CCOCC3)C2)c1C (stereo not given)	i	-0.97
CCOc1ccc(-c2noc(Cc3nc(-c4ccccc4)cs3)n2)cc1	i	-0.29
NC(=O)CN1c2ccc(F)cc2-c2ccccc2S1(=O)=O	i	-0.15
Cc1ccc2ccc3cc(C(=O)NCCCOC(C)C)nc3c2[nH]1	i	0.39
CCN(CC)CCc1nc(-c2ccccc2)no1	i	-0.61&-0.77
COc1ccc(N(C(=O)c2ccncc2)S(=O)(=O)c2ccc3c(c2)n(C)c(=O)n3C)cc1	i	-1.7
Cc1nccn1Cc1noc(-c2ccc3c(c2)OCO3)n1	i	-0.25
Cc1c(CCNC(=O)c2ccc(Cl)cc2)sc2nc(-c3ccc(F)cc3)nn12	i	0.37
CCCC(=O)OCc1cnc(C)c2oc(=O)c(C(=O)Nc3ccsc3C(=O)OC)cc12	i	0.23
Cc1cc(C)cc(S(=O)(=O)Nc2ccccc2-c2ccc3ccccc3n2)c1	i	0.8
CN(C)C1(CNC(=O)COc2ccccc2)CCCCC1	i	-0.76
COc1cccc(NC(=O)C2CCN(S(=O)(=O)c3ccc4c(c3)CCCN4C(C)=O)CC2)c1	i	0.3
CC(C)(O)c1ccccc1CC[C@@H](SC1(CC(=O)O)CC1)c1cccc(/C=C/c2ccc3ccc(Cl)cc3n2)c1	i	1
Cn1nc(C(=O)N2CCCCC2)c2c1-c1ccccc1OC2	i	0.36
CCN1c2cc(C)ccc2-n2cccc2C12CCN(C(=O)c1ccccc1Br)CC2	i	-0.38
O=C(Nc1ccccn1)c1nc(SCc2ccccc2)ncc1Sc1ccccc1	i	-0.18
Clc1ccc(-c2noc(Cc3nc(-c4ccc5c(c4)OCO5)cs3)n2)cc1	i	2.2
CCc1nc2nc3c(c(Nc4ccc(F)c(Cl)c4)n2n1)CCC3	i	0.01
CCOc1ccccc1N(CC(=O)N1CCN(c2ccccc2)CC1)S(=O)(=O)c1ccccc1	i	-1.3
Cc1ccc(NC(=O)Cn2cc(S(=O)(=O)Cc3ccccc3)c3ccccc32)cc1C	i	-0.31
Cc1cc(N2CCOCC2)nc2ccc(NC(=O)NCC3CCCO3)cc12 (stereo not given)	i	-0.53
Cc1ccc(Cl)cc1NC(=O)CCCN1CCSc2ccccc21	i	-0.56
CCOc1ccc(S(=O)(=O)N2CCN(c3ccc(OC)cc3)CC2)cc1-c1nc(CC)no1	i	-0.08
O=c1cc(CN(Cc2ccccc2)Cc2ccccc2)nc2scc(-c3ccccc3)n12	i	1.6
CCc1c(C)nc2ncnn2c1Sc1ccccc1NC(=O)Nc1ccccc1	i	-1.1
CSc1c(CC(C)C)cnc2c1c(=O)n(C)c(=O)n2C	i	-0.43
CC(C)CSc1nccn2nc(-c3ccc(Cl)cc3)cc12	i	0.02
O=C1CCCN1c1ccc(S(=O)(=O)Nc2ccc(-c3cc4cc(F)ccc4[nH]3)cc2)cc1	i	-0.2
Cc1ccnc(NC(=O)C2CCN(S(=O)(=O)c3c(C)nn(CC(=O)N4CCc5ccccc54)c3C)CC2)c1	i	-0.56
CCn1c(CCc2ccc(NS(=O)(=O)c3cc(C)ccc3C)cc2)nc2ccccc21	i	-1.1

Among those listed so far, 18 have a Cl atom:
SMILES	Anaer choline gr	Anaer choline gr early
CN1C(=O)c2cc(NC(=O)c3ccc(Cl)cc3)ccc2N2CCN=C12	i	0.3
CCc1cccc(NC(=O)c2nc(CS(=O)(=O)c3ccc(Cl)cc3)no2)c1	i	0.12
O=C(Cn1c(=O)n2nc(-c3ccc(F)cc3)nc2c2ccccc21)c1ccccc1Cl	i	-0.85
N#CC1=CN(c2ccc(F)cc2Cl)c2cc(Cl)ccc2S1(=O)=O	i	0.45
CC(=O)N1CCOc2cc(S(=O)(=O)N3CCC(C)CC3)c(Cl)cc21	i	-0.58
CCOC(=O)c1ccccc1NC(=O)CSc1ncc(S(=O)(=O)c2ccc(C)c(Cl)c2)c(=O)[nH]1	i	-1.3
O=S(=O)(c1ccc(Cl)cc1)N1CCC(n2cnc3cccnc32)CC1	i	-0.42
Cc1ccn2c(=O)cc(COc3ccccc3NC(=O)Nc3cccc(Cl)c3)nc2c1	i	0.25
Cc1ccc(Cl)cc1NC(=O)N1CCCC(C)(C(=O)NCc2ccc(F)cc2)C1 (stereo not given)	i	0.47
O=C(NCC1CCCO1)c1cc(-c2cccnc2)nc2ccc(Cl)cc12 (stereo not given)	i	-0.42
COc1cc(Cl)c(C)cc1NS(=O)(=O)c1c(C)nc2sc3ccccc3n2c1=O	i	0.78
CCOC(=O)c1ccccc1NC(=O)CSc1ncc(S(=O)(=O)c2ccc(OC)c(Cl)c2)c(=O)[nH]1	i	0.07
Cc1c(CCNC(=O)c2ccc(Cl)cc2)sc2nc(-c3ccc(F)cc3)nn12	i	0.37
CC(C)(O)c1ccccc1CC[C@@H](SC1(CC(=O)O)CC1)c1cccc(/C=C/c2ccc3ccc(Cl)cc3n2)c1	i	1
Clc1ccc(-c2noc(Cc3nc(-c4ccc5c(c4)OCO5)cs3)n2)cc1	i	2.2
CCc1nc2nc3c(c(Nc4ccc(F)c(Cl)c4)n2n1)CCC3	i	0.01
Cc1ccc(Cl)cc1NC(=O)CCCN1CCSc2ccccc21	i	-0.56
CC(C)CSc1nccn2nc(-c3ccc(Cl)cc3)cc12	i	0.02

Assay outcomes from PubChem.
